Screening results: PubChem, National Center for Advancing Translational Sciences (NCATS)
Rango release inh: inhibitors of RanGTP-induced Rango-importin beta complex dissociation; AID 540253; Biochemical FRET Rango-importin beta, RanGTP-induced dissociation; O95149+P62826; Potency, µM (doses to about 46.1 µM), inactives show at the top dose activity change, negative = inhibition; 340,000 tested, 0.071% active; active means falling FRET ratio curve, often poorly fitted, with flat reads before Ran was added; inconclusive means other falling curves, or compound fluorescence or quenching; inactive means flat or rising ratio curve;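 note: potency is the fitted concentration of half-maximal effect; % of control where 0% means no effect; nearly all actives have a fitted effect of over 45% in size; -100% = wells without RanGTP and RCC1; the record marks most hits as doubtful in a second field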
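Rango FRET biosensor (snurportin-1 IBB flanked by N-terminal EYFP and C-terminal CFP10) at 0.1 uM, with 0.25 uM importin beta in PBS, 1mM DTT, 0.02% Tween-20, 0.1% BSA. 0.6 uM Ran, 2mM GTP and 0.2 uM RCC1 were then added for 45 min at room temperature. Inhibition read as loss of FRET rise.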
Rango complex inh: inhibitors of Rango-importin beta complex formation | 340,000 tested, 0.031% active | Rango CFP/YFP FRET sensor + importin beta, 45 min | Potency, µM (titrated, usually from 92.2 µM), without a hit: at the top dose inhibition of complex formation | AID 540263 | Q14974; active = rising FRET ratio curve, often small or poorly fitted; inconclusive = mostly compound fluorescence or quenching in the first reads; inactive = flat curves in all reads;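 note: potency is the fitted concentration of half-maximal effect; 0% = DMSO wells and 100% = buffer wells lacking importin beta; nearly all actives have a fitted effect of over 15% in size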
Target sequence (Q14974 whole entry, looked up): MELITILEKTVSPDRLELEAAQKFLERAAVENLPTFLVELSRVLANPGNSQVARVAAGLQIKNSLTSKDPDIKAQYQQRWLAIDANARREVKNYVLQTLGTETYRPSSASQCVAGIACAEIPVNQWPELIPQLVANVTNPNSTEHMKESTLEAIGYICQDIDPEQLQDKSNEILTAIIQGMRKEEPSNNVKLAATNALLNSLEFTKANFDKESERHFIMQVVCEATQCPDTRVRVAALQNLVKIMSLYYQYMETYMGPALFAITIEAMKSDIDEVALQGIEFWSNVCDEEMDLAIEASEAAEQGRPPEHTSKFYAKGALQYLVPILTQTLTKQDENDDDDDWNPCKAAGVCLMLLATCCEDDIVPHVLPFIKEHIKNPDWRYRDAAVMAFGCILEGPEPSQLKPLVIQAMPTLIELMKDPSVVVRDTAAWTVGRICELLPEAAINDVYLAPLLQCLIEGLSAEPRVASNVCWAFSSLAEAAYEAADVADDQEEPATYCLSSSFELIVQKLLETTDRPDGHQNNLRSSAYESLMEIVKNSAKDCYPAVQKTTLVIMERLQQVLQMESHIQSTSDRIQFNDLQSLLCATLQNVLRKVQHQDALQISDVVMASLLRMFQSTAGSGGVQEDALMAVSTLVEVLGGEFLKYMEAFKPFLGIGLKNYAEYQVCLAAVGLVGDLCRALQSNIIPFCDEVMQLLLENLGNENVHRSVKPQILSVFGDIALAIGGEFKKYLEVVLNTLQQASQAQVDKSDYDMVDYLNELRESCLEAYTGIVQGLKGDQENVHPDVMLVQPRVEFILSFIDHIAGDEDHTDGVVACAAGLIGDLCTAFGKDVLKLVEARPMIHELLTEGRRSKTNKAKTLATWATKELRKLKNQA
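FRET biosensor Rango (snurportin 1 IBB between N-terminal EYFP and C-terminal Cerulean), 50 nM in PBS/1 mM DTT/0.02% Tween-20/0.1% BSA, preincubated 5 min RT with compound; 0.125 microM importin beta added, 45 min RT, CFP/YFP FRET ratio read.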
GLA inh pH 4.5: blocks human alpha-galactosidase A at pH 4.5 | AID 1467 | P06280 | 230,000 tested, under 10 active | activity change, negative = inhibition, % at 105 µM | purified enzyme, 4-MU-alpha-Gal fluorescence, pH 4.5; inconclusive = small, poorly fitted or top-dose-only inhibition, or a rising curve; inactive = flat fitted curve, though single readings scatter; no compound was filed as active;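 note: 0% = full activity with enzyme and -100% = basal without enzyme; dose as in the result columns while the protocol names 77 µM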
miR-21 reporter: miR-21 reporter, rising signal; HeLa miR-21 FLuc reporter, luciferase, 48 h; Potency, µM (doses to about 38.3 µM), inactives show top-dose reporter change, positive = more light; 340,000 tested, under 10 active; AID 2288; active = well fitted rising curve with a large enough effect; inconclusive = small, poorly fitted or top-dose-only effect; inactive = no such curve, though single readings can be large or run the other way;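 note: % of control where 0% means no effect; miR-21 action dims this reporter so a rising signal means less miR-21 action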
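HeLa cells endogenously expressing miR-21, stably carrying CMV-driven firefly luciferase with a downstream miR-21 binding site, 2000 cells/well. Titrations up to approximately 40 uM, 48 hours; luciferase luminescence read.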
* marks the source's active call; other numbers are inactive results; ? = inconclusive; . = no result given; & = joins results of further samples.

SMILES	Rango release inh	Rango complex inh	GLA inh pH 4.5	miR-21 reporter
CC1CCN(C(=O)CSc2nnc(CNC(=O)c3c(F)cccc3F)o2)CC1	7%	-2.3%	.	1%
Cc1cc(CNC(=S)Nc2cccc(Cl)c2Cl)nn1C	25%	-4.3%	0	3%
O=C(c1ccncc1)N(Cc1cc2ccccc2[nH]c1=O)C1CCCCC1	-9%	0.6%	5	18%
CC(OC(=O)c1snc(C(=O)NC2CCCCC2)c1N)C(=O)NC1CCCCC1 (stereo unspecified)	-3%	1.5%	18	-3%
COC(=O)N1c2ccccc2CCc2ccccc21	-3%	0.9%	.	21%
CC(C)Nc1nnc(SCC(=O)Nc2ccc(F)cc2)s1	17%	-1.5%	0	-10%
COC(=O)c1cn(NC(=O)Cc2c(F)cccc2Cl)c(=O)c2ccccc12	-22%	-2.1%	-2	-4%
O=C(NC(=S)Nc1ccc2[nH]c(=O)[nH]c2c1)c1cccc(F)c1	-10%	-0.8%	.	-19%
O=C(OC1CCCC1)c1ccc(Cl)cc1Cl	1%	?	.	.
COc1ccc(Oc2c(C=O)c3ccccc3n2C)cc1	-3%	-3.4%	9	5%
CCN1CCN(C(=O)CCc2nnc(CCc3ccc(OC)cc3)o2)[C@@H](C)C1=O	-5%	3.1%	.	-14%
CCOC(=O)c1ccc(NC(=S)N2CCC(C(N)=O)CC2)cc1	-8%	2.1%	-4	-11%
COc1ccc(N2CCN(C(=O)COC(=O)c3cc(S(=O)(=O)N(C)C)ccc3N3CCCC3)CC2)cc1	-3%	-0.9%	.	.
CN1CCN(S(=O)(=O)c2cccc(C(=O)N3CCN(c4ccccc4)CC3)c2)CC1	18%	0.4%	.	.
Cc1cc(Cl)ccc1NC(=O)COC(=O)c1c(C)noc1C	-1%	-0.9%	.	.
O=C(NCc1ccccc1Cl)c1cnccn1	9%	-4.4%	-10	-6%
CC1(C)CC(=O)C2=C(C1)N(c1ccccc1)C(=O)CC2c1ccsc1 (stereo unspecified)	15%	-2.8%	-1	-1%
CCOc1ccc(C(=O)C2CCN(CC(=O)Nc3ccccc3N3CCOCC3)CC2)cc1	-2%	2.4%	-10	-3%
O=C(c1cccc(F)c1F)N1CCCc2ccccc21	0%	-4.0%	.	0%
Cn1c(=O)c2ncn(CC(=O)NCCC3=CCCCC3)c2n(C)c1=O	-15%	-0.3%	2	1%
O=C(Nc1cccc(-c2nnc(-c3ccccc3)o2)c1)c1ccc(Br)o1	17%	-2.8%	-4	-11%
CCOc1cc(CNCc2cccs2)cc(Br)c1OCC	13%	3.7%	-8	-1%
N#C/C(=C(/O)COC(=O)c1ccc(Cl)c(S(=O)(=O)N2CCOCC2)c1)c1nc2ccccc2[nH]1	4%	-1.2%	2	-8%
CCOc1ccc(/C=N/Nc2nc(N3CCCC3)nc(N3CCCC3)n2)cc1OC	-15%	-0.2%	0	0%
CCc1ccc(N2CC(C)Cn3c2nc2c3c(=O)[nH]c(=O)n2C)cc1 (stereo unspecified)	2%	2.9%	.	0%
COC(=O)c1cc(S(=O)(=O)N2CCN(c3ccc(F)cc3)CC2)c[nH]1	-2%	-0.7%	.	-1%
Cc1ccc(S(=O)(=O)N2CCN(C(=O)c3ccc(Cl)nc3)CC2)cc1	3%	2.5%	-12	1%
O=C(OCc1nc2ccccc2s1)c1cccc(N2C(=O)CCC2=O)c1	13%	-2.2%	-1	-3%
Cc1ccc(NS(=O)(=O)c2ccc3[nH]c(=O)[nH]c3c2)c(C)c1	52%	-0.7%	8	-2%
CCn1c(C)[n+](CCOCC[n+]2c(C)n(CC)c3cc(Cl)c(Cl)cc32)c2cc(Cl)c(Cl)cc21	0%	-0.7%	10	-2%
O=c1[nH]c(-c2ccccc2O)nc2c1CCCC2	-2%	0.7%	-8	-5%
Cc1cc(C)cc(OCC(=O)NNC(=O)CCC(=O)NCc2ccccc2)c1	4%	-0.5%	-9	-1%
CC(=O)Nc1ccc(SCC(=O)Nc2ccc(Cl)cn2)cc1	-2%	-2.7%	-11	-1%
CC(OC(=O)C1CC1)C(=O)Nc1cc(Cl)cc(Cl)c1 (stereo unspecified)	-8%	4.6%	.	.
COc1cc(NC(=S)Nc2ccc(S(=O)(=O)N3CCOCC3)cc2)cc(OC)c1OC	?	0.4%	7	-3%
COC(=O)C1(Cc2cc(-c3ccc([N+](=O)[O-])cc3)no2)CCN(C(=O)OC(C)(C)C)CC1	-4%	-1.1%	.	.
COC(=O)CSc1nc(-c2ccc(F)cc2)cc(C(F)(F)F)n1	4%	-0.3%	-12	0%&-5%
CCSc1nc2ccccc2c(=O)n1-c1c(C)n(C)n(-c2ccccc2)c1=O	2%	0.2%	-2	1%
CN(C)CCNC(=O)c1cccc2[nH]c(-c3ccncc3)nc12	-16%	3.9%	.	.
Cc1ccc(-c2nnc(SCC(=O)N3CCCC3)o2)cc1C	27%	-1.0%	-2	-49%
CCN1CCN(C(=O)CCc2nnc(CCCCc3ccccc3)o2)[C@@H](C)C1=O	1%	5.5%	-4	-3%
CCC(C)(c1nnnn1-c1c(C)cccc1C)N(N=O)c1cccc(C(F)(F)F)c1 (stereo unspecified)	1%	-4.4%	-16	15%
CCc1cccc(C)c1NC(=O)CO/N=C(\N)CC(=O)NC1CCCCC1	-11%	0.0%	4	-1%
CCOc1cccc(C(=O)Nc2cc(-c3nn4c(C)nnc4s3)ccc2C)c1	8%	-0.2%	3	-5%
CC(C)CCN1CCN(Cc2ccc3nsnc3c2)CC1CCO (stereo unspecified)	6%	-0.6%	0	-3%
COc1ccccc1-c1nc(C#N)c(NCc2ccc(F)cc2)o1	0%	-0.2%	-8	-24%
CN(Cc1ccccc1)C(=O)CCC1CCN(S(=O)(=O)N(C)C)CC1	0%	2.3%	.	-3%
CCc1nnc(NC(=O)C2CCCN(S(=O)(=O)c3ccccc3)C2)s1 (stereo unspecified)	0%	-0.5%	2	1%
CCCCCCc1cc2cc(S(=O)(=O)c3ccc(Cl)cc3)c(=O)oc2cc1O	?	?	4	-4%
CC(OC(=O)c1cc(Br)ccc1O)C(=O)NCc1ccc2c(c1)OCO2 (stereo unspecified)	6%	-1.3%	.	.
Cn1ncc2c(NNC(=O)Cc3cccc4ccccc34)ncnc21	-11%	0.7%	2	-32%
Cc1cc(NC(=O)c2c(F)cccc2Cl)no1	-1%	2.3%	4	-19%
O=C(CC12CC3CC(CC(C3)C1)C2)NC(=S)NCc1ccco1	-11%	14%	3	8%
O=C(CCc1ccccc1)NNC(=O)c1ccncc1	10%	1.3%	.	.
Cc1ccc(C(=O)NCCc2cccs2)cc1	28%	-0.9%	-11	?
COc1ccc(OC)c(/C(C)=N\NC(=O)c2cc3cc(Cl)ccc3n2C)c1	-16%	?	.	7%
CCN1CCc2c(OCC(=O)N3N=C(c4cccs4)CC3c3ccc(F)cc3)cccc2C1=O (stereo unspecified)	1%	-1.6%	-1	-14%
Cc1ccc(C)c(NC(=S)c2ccccn2)c1	-1%	-0.7%	3	-35%
O=C(O)CSCc1ccc(C(=O)O)o1	4%	0.3%	8	-3%
O=C(O)c1ccc(N/N=C/c2cc3cc4c(cc3nc2Cl)OCCO4)cc1	?	?	-5	26%

Pulled one by one from above:
SMILES	Rango release inh	Rango complex inh	GLA inh pH 4.5	miR-21 reporter
CCc1nnc(NC(=O)C2CCCN(S(=O)(=O)c3ccccc3)C2)s1 (stereo unspecified)	0%	-0.5%	2	1%
CC1(C)CC(=O)C2=C(C1)N(c1ccccc1)C(=O)CC2c1ccsc1 (stereo unspecified)	15%	-2.8%	-1	-1%
COc1ccc(Oc2c(C=O)c3ccccc3n2C)cc1	-3%	-3.4%	9	5%

Additional results.
SMILES	Rango release inh	Rango complex inh	GLA inh pH 4.5	miR-21 reporter
Cn1c(N)c(N=Nc2ccc(S(N)(=O)=O)cc2)c(=O)n(C)c1=O	7%	3.6%	-6	-9%
CCOC(=O)C1CCCN(C(=O)c2ccccc2NC(C)=O)C1 (stereo unspecified)	-7%	?	0	-4%
CSCC[C@H](NC(=O)N1CCn2c1nc1ccccc12)C(=O)NCc1ccc(F)cc1	1%	?	.	6%
CN(CC(=O)Nc1c(Cl)cccc1Cl)C(=O)c1ccccc1-c1nc2ccccc2s1	-12%	-2.3%	.	.
C1=CC2CC1CC2CNCc1ccco1 (stereo unspecified)	2%	1.2%	-7	0%
COC(=O)CN1C(=O)[C@H]2[C@@H](C3CC3)N3C(=O)CN(Cc4ccc(-c5ccccc5)cc4)C(=O)[C@@]3(Cc3ccccc3)[C@H]2C1=O	-8%	-0.4%	.	-3%
COc1ccc(C2CC(=O)C=C(NCC3CCCO3)C2)cc1 (stereo unspecified)	9%	-4.3%	-4	-4%
Cc1nc(/N=C\c2ccc(N(C)C)cc2)sc1C	-8%	-0.9%	.	.
COc1cccc(C2C(C#N)=C(N)SC(c3ccccc3)C2[N+](=O)[O-])c1 (stereo unspecified)	-5%	-1.9%	1	-6%
CC(=O)Nc1ccc(Sc2ncnc3scc(-c4ccccc4)c23)cc1	-5%	-1.4%	0	-8%
N#Cc1ccc(NC(=O)CCc2nc3ccccc3s2)cc1	6%	0.3%	-4	-6%
CCN(C[C@H]1N[C@@](C)(C(=O)OC)[C@H]2C(=O)N(Cc3ccccc3)C(=O)[C@@H]12)C(=O)c1ccccc1	1%	1.2%	.	.
O=C(CSc1nc(=O)n(CCCN2CCOCC2)c2c1CCCC2)Nc1ccc(F)cc1F	4%	4.9%	.	.
CCCC(=O)NC(=S)Nc1ccc(NC(=O)c2cccs2)cc1	-9%	-0.2%	2	-6%
O=C(OCc1cncs1)c1cccs1	5%	1.4%	1	-1%
CCO[C@H]1OC(C(=O)N2CCN(Cc3ccc4c(c3)OCO4)CC2)=C[C@@H](c2csc3ccccc23)[C@@H]1CCCO	1%	0.7%	-6	20%
CC(C)(C)C(=O)Nc1sc2c(c1C(=O)Nc1ccccn1)CCCC2	-3%	-1.0%	1	0%
Cc1ccc(C(O)(CCN2CCCCC2)c2ccccc2)cc1 (stereo unspecified)	5%	-5.4%	.	-3%
CC1(C)CC2(CCO1)C(Nc1ccccc1)=NC(=S)N2CC(N)=O (stereo unspecified)	-6%	2.1%	1	-1%
CC(=O)Nc1ccc(S(=O)(=O)NC2CC2)cc1	7%	5.5%	.	0%
CCOc1ccccc1C(=O)NC(C(=O)N(C)Cc1ccc2c(c1)OCO2)C(C)C (stereo unspecified)	-3%	-0.3%	.	.
O=C(Nc1ccc([N+](=O)[O-])cc1)N1CCN(C(=O)C2CCCO2)CC1 (stereo unspecified)	20%	3.1%	.	0%
O=C1C=C(c2cccc(Cl)c2O)C[C@@H](c2ccc3c(c2)OCO3)C1	?	?	.	.
CC(C)N1C(=S)N(Cc2ccco2)C(=O)C1CC(=O)Nc1ccccc1 (stereo unspecified)	-9%	-0.7%	6	8%
CCOC(=O)c1c(S(=O)(=O)NCC2CCN(CCc3cccs3)CC2)c(C)n(C)c1C	-8%	-2.4%	.	-16%
O=C(N/C(=C/c1cccnc1)C(=O)N1CCCCCC1)c1cccc(Br)c1	2%	0.9%	.	0%
COc1ccc(NC(=O)CNS(=O)(=O)c2ccccc2)cc1Cl	7%	1.5%	6	-9%
CSC1=NCCN1C(=O)COc1ccccc1	?	-4.9%	1	0%
O=C(N/N=C/c1ccccn1)c1ccc(NC(=O)c2ccc(F)cc2)cc1	-2%	2.0%	.	2%
CCOc1ccc(/C=C/C(O)=C2/C(=O)NC3(C)CC2c2ccccc2O3)cc1OC (stereo unspecified)	-10%	?	1	26%
c1ccc(-c2nnc(-c3ccccc3)o2)cc1	13%	-1.3%	1	-61%
CN(CCCN1CCOCC1)C(=O)c1cc(COc2cccc(C(F)(F)F)c2)on1	-3%	0.5%	.	-2%
CN(C(=O)CSc1nnc(-c2ccccc2)o1)c1c(N)n(Cc2ccccc2)c(=O)[nH]c1=O	0%	-1.3%	7	4%
CCC(=O)c1ccc(OCCSc2ncccn2)cc1	6%	-0.6%	-4	-25%

The list is partial (hit frequency here may not be typical).
